# Assay outcomes: PubChem BioAssay, several laboratories
# HSV replic up: increases HSV replication in cells; HSV replication augmentation in cells, fold increase; maximum fold increase; 0.005% of 220,000 active; AID 1956;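 active = peak rise of 1.5-fold or more in the series; tested in PC3 cells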;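 note: first round at 10 µM; read as green reporter fluorescence; hits show the peak of a series up to 25 µM; 1 = signal of infected wells without compound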
# GALR2 ag: agonists of human galanin receptor 2 (GALR2). 0.48% of 140,000 active. GALR2-expressing cells, agonist activation read-out. AID 803. activation, %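 (tested at 5 µM)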. O43603;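 active = above mean plus 3 SD of all compounds, about 5% in these data, not always enough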;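 note: 0% = vehicle buffer wells and 100% = reference agonist at full effect; tested in CHO reporter cells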
# Target sequence (O43603 whole entry, looked up): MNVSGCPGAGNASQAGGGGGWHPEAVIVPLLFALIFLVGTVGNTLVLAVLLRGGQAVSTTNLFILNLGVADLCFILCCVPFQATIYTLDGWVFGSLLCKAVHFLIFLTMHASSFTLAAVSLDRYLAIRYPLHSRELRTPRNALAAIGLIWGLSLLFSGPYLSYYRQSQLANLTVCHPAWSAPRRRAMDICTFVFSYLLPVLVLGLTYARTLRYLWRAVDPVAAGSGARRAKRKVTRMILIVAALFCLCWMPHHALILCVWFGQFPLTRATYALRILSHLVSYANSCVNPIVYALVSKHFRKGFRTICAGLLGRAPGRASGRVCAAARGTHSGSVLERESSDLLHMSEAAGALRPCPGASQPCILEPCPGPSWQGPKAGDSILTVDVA
# RGS16-Gao HTS: modulates binding between human RGS16 and Galphao. O15492+P09471. bead-based flow cytometry RGS16-Galphao binding, fluorescence; actives lie on both sides. binding response (% of control), % at 10 µM. 0.38% of 220,000 active. AID 1441;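 active = below 25% or above 175%, edge rows of some plates excepted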;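 note: Galphao activated by GDP with aluminum fluoride before binding; 100% = wells without compound and 0% = beads without RGS; some results beyond the cut were filed as inactive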
# Target sequence (O15492 whole entry, looked up): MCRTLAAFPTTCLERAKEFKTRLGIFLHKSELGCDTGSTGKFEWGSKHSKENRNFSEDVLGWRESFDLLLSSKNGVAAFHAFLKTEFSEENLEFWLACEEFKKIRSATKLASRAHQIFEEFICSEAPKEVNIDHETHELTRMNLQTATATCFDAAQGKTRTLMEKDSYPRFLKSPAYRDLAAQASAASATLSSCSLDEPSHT
# Target sequence (P09471 whole entry, looked up): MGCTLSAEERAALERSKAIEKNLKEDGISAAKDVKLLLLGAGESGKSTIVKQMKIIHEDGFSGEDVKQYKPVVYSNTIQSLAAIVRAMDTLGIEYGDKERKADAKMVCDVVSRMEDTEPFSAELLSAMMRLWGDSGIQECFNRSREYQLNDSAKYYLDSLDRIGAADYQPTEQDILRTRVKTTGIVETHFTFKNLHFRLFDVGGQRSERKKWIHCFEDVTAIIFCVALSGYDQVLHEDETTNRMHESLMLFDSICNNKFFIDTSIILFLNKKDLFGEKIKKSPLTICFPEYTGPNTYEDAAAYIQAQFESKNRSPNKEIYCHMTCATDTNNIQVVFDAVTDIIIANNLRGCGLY
# PKD1 inh: inhibitors of human PKD1 kinase; PKD1 kinase fluorescence polarization assay; 0.056% of 200,000 active; inhibition, %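 (about 10 µM by stock and volumes)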;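 active = inhibition of 50% or more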;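 note: controls were vehicle for no effect and a reference inhibitor for full effect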
# INS promoter inh: TRM-6 insulin promoter activity inhibition; TRM-6 cells (human fetal islet line), insulin promoter-eGFP reporter, imaging; reporter expression induced with tamoxifen; inhibition, % at 2 µM; 0.9% of 130,000 active;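 active = inhibition above the mean plus 3 SD, with well images judged a real hit on visual review, cut at about 60% in these data, passing the limit was not always enough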
# INS promoter inh cell count: second read-out of INS promoter inh, no call of its own (marks repeat the call); normalized cell count, %; measured here: cell count, toxicity; reference of the scale not given here;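 cells exposed to compound for 48 h; stained nuclei by imaging scaled within each plate; lower means fewer cells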
# HSV replic up primary fold: further read-out of HSV replic up, marked with its call; fold increase; compound at 10 µM; measured here: primary screen fold increase 10 uM; tested in PC3 cells;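 GFP signal in the first replicate; 1 = infected wells without compound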
# * hit, by the source's call; i = inactive; x = not tested or not shown.
Molecule,HSV replic up,HSV replic up primary fold,GALR2 ag,RGS16-Gao HTS,PKD1 inh,INS promoter inh,INS promoter inh cell count
COc1ccc2cc1Oc1ccc(cc1)C[C@H]1c3cc(c(OC)cc3CCN1C)Oc1c(O)c(OC)cc3c1[C@H](C2)N(C)CC3,i,0.57,x,105,x,x,x
CNC(=O)c1c(NC(=O)c2cccc(N3C(=O)CCC3=O)c2)sc2c1CCCC2,i,0.97,x,101,x,x,x
CCCOc1ccc(S(=O)(=O)NCCCN2CCOCC2)c2ccccc12,i,1,-1.9,103,-5,19,112
Clc1ccc(SCc2cn3ccccc3n2)cc1,i,0.96,x,104,0,-5,153
CCNC(=O)C1CC(=O)N(c2ccc(Br)cc2)C1 (stereo not given),i,0.86,-1.2,91,-1,x,x
CCN(CC)S(=O)(=O)c1ccc(O)c(NS(=O)(=O)c2ccccc2F)c1,i,1.1,-1.3,98,-11,x,x
CCC(C)NC(=O)C1CCN(S(=O)(=O)c2ccc(OC)cc2)CC1 (stereo not given),i,0.95,-1.8,102,10,20,61
O=C(COC(=O)/C=C/c1cccc(F)c1)Nc1ccc(Cl)cn1,i,0.89,x,101,-4,x,x
CC(=O)c1ccc2noc(-c3ccc(C)cc3)c2c1,i,0.94,x,97,1,6,89
CN(c1ccccc1C(=O)Nc1ccccc1C(=O)NCc1ccco1)S(C)(=O)=O,i,0.66,-2.2,100,-6,-68,111
O=C(COC(=O)c1cccs1)Nc1cc(S(=O)(=O)N2CCOCC2)ccc1Cl,i,0.92,x,98,-8,x,x
COc1ccc(C(=O)Nc2ccc3c(c2)nc(CN2CCN(C(C)=O)CC2)n3C)cc1,i,0.96,-0.5,99,-7,16,144
CC1CC(C)CN(C(=O)C2CCCN(S(=O)(=O)c3cccc4nonc34)C2)C1 (stereo not given),i,0.82,-0.8,100,-9,0,173
Cc1cc(/C=N/n2cnnc2)c(C)n1-c1ccc(Cl)cc1,i,0.94,0.4,77,7,-128,37
COc1ccc(N(C(C)C(=O)N/N=C/c2ccc(OCC(C)C)cc2)S(C)(=O)=O)cc1 (stereo not given),i,0.9,-1.7,104,-3,-7,116
CCCCN(CCCC)Cc1ccc(C(=O)NNC(=O)Nc2ccccc2)o1,i,1,x,103,-4,-12,143
Cc1noc(C)c1S(=O)(=O)N(CC(=O)Nc1ccc2c(c1)OCO2)c1ccc(C(C)C)cc1,i,0.89,-2.2,99,5,x,x
Cc1cccc(NC(=O)c2cc([N+](=O)[O-])ccc2NC2CCCCC2)c1,i,0.99,-1.8,53,-9,28,122
CCCc1nnc(NC(=O)CCC(=O)N2CCN(c3nc(C)cc(C)n3)CC2)s1,i,0.75,x,95,x,x,x
Cc1csc(NC(=O)c2ccc(C)c(S(=O)(=O)N3CCOCC3)c2)n1,i,1,x,102,-10,x,x
O=C(OCc1ccc(COC(=O)c2cccnc2Cl)cc1)c1cccnc1Cl,i,1.1,x,101,-3,x,x
O=C(CSc1ncc(C(F)(F)F)cc1Cl)N1CCN(S(=O)(=O)c2ccccc2)CC1,i,0.98,-1.3,103,-6,-7,88
CCC1Sc2ccccc2N(CC(=O)NCc2ccc3c(c2)OCO3)C1=O (stereo not given),i,0.92,-0.8,98,1,-23,86
O=C(OCC(=O)N1CCN(S(=O)(=O)c2ccc(Cl)cc2)CC1)c1ccc([N+](=O)[O-])o1,i,0.99,x,101,-6,x,x
O=C(Cc1ccc([N+](=O)[O-])cc1)NCC1CCCO1 (stereo not given),i,0.98,x,100,2,x,x
CCCC(=O)Nc1nnc(-c2ccco2)s1,i,0.84,-0.9,103,7,x,x
O=C(CCn1nnc2ccccc21)NNC(=O)C1CCCCC1,i,1,x,95,-1,-27,94
Cc1cc(Sc2nc(NC(C)C)nc(NC(C)C)n2)nc(Cl)n1,i,0.92,x,111,-12,17,103
Cc1ccc[n+](CC(=O)N2CCCCC2)c1C,i,0.99,x,100,x,x,x
O=[N+]([O-])c1ccc(C2CCCC/C2=N/OCc2ccc(F)cc2)c([N+](=O)[O-])c1 (stereo not given),i,0.86,-1.6,100,-16,40,83

# A second format for some results above.
CCNC(=O)C1CC(=O)N(c2ccc(Br)cc2)C1 (stereo not given)
  HSV replic up = i | HSV replic up primary fold = 0.86 | GALR2 ag = -1.2 | RGS16-Gao HTS = 91 | PKD1 inh = -1 | INS promoter inh = x | INS promoter inh cell count = x

CCN(CC)S(=O)(=O)c1ccc(O)c(NS(=O)(=O)c2ccccc2F)c1
  HSV replic up = i | HSV replic up primary fold = 1.1 | GALR2 ag = -1.3 | RGS16-Gao HTS = 98 | PKD1 inh = -11 | INS promoter inh = x | INS promoter inh cell count = x

# (listing goes on)
Molecule,HSV replic up,HSV replic up primary fold,GALR2 ag,RGS16-Gao HTS,PKD1 inh,INS promoter inh,INS promoter inh cell count
CCN1CCN(c2c(Cl)cccc2NC(=O)c2ccc3c(c2)OCCO3)CC1,i,0.87,0.1,104,4,9,151
O=C(Nc1ccc(S(=O)(=O)NCc2ccco2)cc1)c1ccncc1,i,0.96,-2.6,103,-6,5,121
NC1=NN=C(N2N=C(c3ccccc3)CC2(O)C(F)(F)F)n2ncnc2C1 (stereo not given),i,0.98,x,99,-5,-26,80
COc1cc(NC(=O)Cn2ncc(Cl)c(Cl)c2=O)c(C)cc1[N+](=O)[O-],i,0.56,x,94,5,x,x
Cc1cc(-c2cccs2)n[nH]1,i,0.94,-0.6,92,-3,-30,129
COc1ccc(/C(C)=N\NS(C)(=O)=O)c(OC)c1,i,0.84,-0.8,96,-4,-250,96
COCCCNC(=S)N/N=C/c1ccccc1O,i,1,x,98,x,x,x
CC1CCN(c2cc(N)c(Cl)cc2[N+](=O)[O-])CC1,i,0.85,-1.5,105,28,-13,116
O=C(CSc1ccc(Cl)cc1)OCc1nnc(-c2ccccc2)o1,i,1,-2.0,100,-13,0,87
CC(C)C(NC(=O)c1ccc(F)cc1)C(=O)Nc1cccnc1 (stereo not given),i,1,x,103,-2,-55,143
CCOC(=O)c1nnc(-c2cccs2)nc1Oc1ccc(Cl)cc1,i,1,-2.2,107,-1,20,137
Cc1ccc(-c2nc3ncccc3o2)cc1NC(=O)c1cccnc1,i,0.94,x,105,1,-38,109
O=C(NCCc1nc2ccccc2[nH]1)c1cccc(Br)c1,i,1,x,107,-2,x,x
CCCCN(C)C(=O)c1nc2ccccn2c1CN1CCSCC1,i,0.94,x,102,-4,x,x
CCOC(=O)N1CCN(C(=O)c2oc(=O)c3ccccc3c2-c2ccc(C)cc2)CC1,i,1.2,0.0,103,1,x,x
N#CCCN(C(=O)CSc1ccc2c(c1)OCCO2)c1ccccc1,i,0.93,-0.8,104,-10,28,98
CCN1CCN(C(=O)C2c3cc(OC)c(OC)cc3C(=O)N(C)C2c2ccc(SC)cc2)CC1 (stereo not given),i,0.97,0.1,101,-9,-42,30
Cc1ccccc1NC(=O)C1CCN(C2=NS(=O)(=O)c3ccccc32)CC1,i,1.1,x,105,0,18,107
O=C(NNc1c(Cl)cncc1Cl)c1sccc1Cl,i,1,x,105,x,x,x
Cc1cccc(CN2CCc3c(OCC(=O)N4CCCc5ccccc54)cccc3C2=O)c1,x,x,0.3,102,-15,x,x
CCOC(=O)C1CCCN(C(=O)c2cc(-c3ccc(C)cc3)on2)C1 (stereo not given),i,0.96,-2.2,108,3,0,141
CC(C)(C)n1nnnc1C(c1cccs1)N(Cc1ccccc1)Cc1ccco1 (stereo not given),i,1.1,-2.8,111,-8,-42,97
COc1ccccc1CNc1ccc(N2CCOCC2)c(C(=O)O)c1,i,0.99,-2.1,112,-5,x,x
O=C1NC(=O)/C(=C\c2ccc(OCc3cnc(Cl)s3)cc2)S1,i,1.7,x,98,-5,x,x
CN(C)/C=C1\C(=O)N(c2ccc(Cl)c(Cl)c2)CS1(=O)=O,i,1,x,112,1,27,95
COc1ccc(Br)cc1C(=O)Nc1cccc2ncccc12,i,1.1,x,104,-1,-37,109
CN(C)/C=C1/Sc2ccccc2C1=O,i,1,-2.3,104,9,x,x
O=C1NC(c2ccccc2)CCC1(Cl)Cl (stereo not given),i,0.98,-0.2,106,-2,-21,152
O=C(c1ccccc1)c1ccc2nc(N3CCN(C(=O)c4ccco4)CC3)c3nncn3c2c1,i,0.93,x,111,-13,x,x
Nn1cc(-c2ccccc2)nc1SCC(=O)Nc1cccc(S(N)(=O)=O)c1,i,0.97,x,104,x,x,x

# Carrying on:
Molecule,HSV replic up,HSV replic up primary fold,GALR2 ag,RGS16-Gao HTS,PKD1 inh,INS promoter inh,INS promoter inh cell count
O/N=C1\CC(O)Cc2nonc21 (stereo not given),i,0.95,-2.0,84,-14,x,x
CN(Cc1ccccc1)S(=O)(=O)c1ccc(C(=O)Nc2nnc(C3CC3)o2)cc1,i,1.1,-1.6,100,7,27,95
CSc1ccc(N/N=C(/C#N)S(=O)(=O)C(C)(C)C)cc1,i,1,x,108,-7,-27,130
Cc1ccc(-c2nc3cccnc3s2)cc1NC(=O)c1ccco1,i,0.83,-2.0,x,-10,-12,202
Cc1cc(NC(=O)C2C3C(=O)N(Cc4ccc(Cl)cc4)C(C(=O)NC(C)(C)C)C34C=CC2(C)O4)no1 (stereo not given),x,x,-2.1,101,-8,3,176
CC(C)(C)c1csc(NC(=O)Cn2c(=O)oc3ccccc32)n1,i,0.86,-0.3,105,-7,-429,109
CCCN1CCN(c2ncnc3c2nnn3Cc2ccccc2)CC1,x,x,-0.8,74,-8,x,x
COc1ccc(/C=C2/NC(=O)N(CC(=O)Nc3cccc(C)c3)C2=O)cc1O,i,1,x,102,-10,41,89
O=C(COc1ccc([N+](=O)[O-])cc1)Nc1ccc(N2CCCC2)cc1,i,1,1.6,98,-12,-54,80
O=C1N/C(=C/c2cccn2-c2ccccc2)C(=O)N1Cc1ccccc1F,i,0.94,-1.7,65,-3,-50,55
COc1ccc(S(=O)(=O)Nc2ccc3c(c2)OCO3)cc1Cl,x,x,-1.5,97,1,-26,107
O=C(Cn1cnc2ccccc2c1=O)Nc1ccc(S(=O)(=O)N2CCCC2)cc1,i,0.88,x,101,1,x,x

# Entries from the list above that have an aryl methoxy group, in the order listed:
Molecule,HSV replic up,HSV replic up primary fold,GALR2 ag,RGS16-Gao HTS,PKD1 inh,INS promoter inh,INS promoter inh cell count
COc1ccc2cc1Oc1ccc(cc1)C[C@H]1c3cc(c(OC)cc3CCN1C)Oc1c(O)c(OC)cc3c1[C@H](C2)N(C)CC3,i,0.57,x,105,x,x,x
CCC(C)NC(=O)C1CCN(S(=O)(=O)c2ccc(OC)cc2)CC1 (stereo not given),i,0.95,-1.8,102,10,20,61
COc1ccc(C(=O)Nc2ccc3c(c2)nc(CN2CCN(C(C)=O)CC2)n3C)cc1,i,0.96,-0.5,99,-7,16,144
COc1ccc(N(C(C)C(=O)N/N=C/c2ccc(OCC(C)C)cc2)S(C)(=O)=O)cc1 (stereo not given),i,0.9,-1.7,104,-3,-7,116
COc1cc(NC(=O)Cn2ncc(Cl)c(Cl)c2=O)c(C)cc1[N+](=O)[O-],i,0.56,x,94,5,x,x
COc1ccc(/C(C)=N\NS(C)(=O)=O)c(OC)c1,i,0.84,-0.8,96,-4,-250,96
CCN1CCN(C(=O)C2c3cc(OC)c(OC)cc3C(=O)N(C)C2c2ccc(SC)cc2)CC1 (stereo not given),i,0.97,0.1,101,-9,-42,30
COc1ccccc1CNc1ccc(N2CCOCC2)c(C(=O)O)c1,i,0.99,-2.1,112,-5,x,x
COc1ccc(Br)cc1C(=O)Nc1cccc2ncccc12,i,1.1,x,104,-1,-37,109
COc1ccc(/C=C2/NC(=O)N(CC(=O)Nc3cccc(C)c3)C2=O)cc1O,i,1,x,102,-10,41,89
COc1ccc(S(=O)(=O)Nc2ccc3c(c2)OCO3)cc1Cl,x,x,-1.5,97,1,-26,107

# Not a hit list; 1.3% or so of the library scored in one or more.
